Vaccinia Venus: qHTS for Stage-Specific Inhibitors of Vaccinia Orthopoxvirus: Venus Reporter Primary qHTS; Vaccinia virus Venus reporter expression, fluorescence; Potency, µM (highest dose often 36.5 µM), for the others: top-dose activity change, negative = inhibition, hits mostly inhibitors; 330,000 compounds, 0.46% hits; active means well fitted inhibition curve with a large enough effect; inconclusive means small, poorly fitted or top-dose-only effect; inactive means no such curve, though single readings can be large or run the other way; tested in A549 cells; note: nearly all actives have a fitted effect of over 30% in size; inactives centre near -10
Vaccinia mCherry: qHTS for Stage-Specific Inhibitors of Vaccinia Orthopoxvirus: mCherry Reporter Primary qHTS. Vaccinia virus mCherry reporter infection, fluorescence; about a quarter of the inactives have no number. 310,000 compounds, 0.63% hits. Potency, µM (series often up to 36.5 µM), without a hit: at the highest dose activity change, negative = inhibition, hits mostly inhibitors; active = well fitted inhibition curve with a large enough effect; inconclusive = small, poorly fitted or top-dose-only effect; inactive = no such curve, though single readings can be large or run the other way; tested in A549 cells; note: nearly all actives have a fitted effect of over 35% in size; inactives centre near -10
* marks the source's active call; other numbers are inactive results; [ ] = remark or other dose. % is set by controls: 0 for no effect and ±100 for the full control effect; potency is the fitted concentration of half-maximal effect. No enrichment for hits; overall some 0.87% were active at least once.

How did NC(=O)[C@@H]1CCCN1C(=O)[C@@H](Cc1cnc[nH]1)NC(=O)[C@@H]1CCC(=O)N1 do in these assays?
Vaccinia Venus: -6%; Vaccinia mCherry: -9%

Results for CNc1ncnc(Sc2ccc(Cl)cc2)c1[N+](=O)[O-] ?
Vaccinia Venus: -13%; Vaccinia mCherry: inactive

How did CC(=O)OCC(OC(C)=O)C(OC(C)=O)C(OC(C)=O)C(=O)Nc1ccccc1 (centres undefined) do in these assays?
Vaccinia Venus: -11%; Vaccinia mCherry: inactive

How did COC1=CC(=NCl)C=CC1=NCl do in these assays?
Vaccinia Venus: 12%; Vaccinia mCherry: 7%

What do the screens show for `CCCn1nc(C(=O)NNC(=O)c2cc(S(=O)(=O)NC)ccc2Br)c2ccccc2c1=O`?
Vaccinia Venus: -11%; Vaccinia mCherry: inactive

What do the screens show for `Cc1cccc(N(Cc2ccccc2)C(=O)c2ccc(S(C)(=O)=O)cc2)c1`?
Vaccinia Venus: -13%; Vaccinia mCherry: inactive

How did CCc1ccccc1NC(=O)CC(c1ccc(F)cc1)N1Cc2ccccc2C1=O (centres undefined) do in these assays?
Vaccinia Venus: -8%; Vaccinia mCherry: -21%

Results for COCCNC(=O)c1cc(Sc2ccc(F)cc2F)nc2ccccc12 ?
Vaccinia Venus: -14%; Vaccinia mCherry: -12%

What do the screens show for `CN1CCN(c2ccc(-c3cc(NC=O)c4ncc(-c5ccc(F)c(Cl)c5)n4c3)cc2)CC1`?
Vaccinia Venus: -18%; Vaccinia mCherry: inconclusive

What do the screens show for `CCCn1c(CCc2ccccc2)nnc1SCC(=O)N1CCOCC1`?
Vaccinia Venus: -23%

What do the screens show for `O=C(c1ccccc1F)N1CCN(c2ccccn2)CC1`?
Vaccinia Venus: -19%; Vaccinia mCherry: inactive

How did CCOc1ccc(CCNC(=O)c2cnc3c(-c4ccc(F)cc4)c(C)nn3c2C)cc1 do in these assays?
Vaccinia Venus: -25%; Vaccinia mCherry: -19%

Results for CCOc1ccc2oc(C(=O)N3CCN(Cc4ccccc4)CC3)c(C)c2c1 ?
Vaccinia Venus: -13%; Vaccinia mCherry: -5%

What do the screens show for `CCCCCC(=O)N1C[C@@H](n2cc(C3CC3)nn2)[C@H](O)C[C@@H]1c1ccc(Cl)cc1`?
Vaccinia Venus: -29%; Vaccinia mCherry: inactive

Results for Nc1ncnc2c(C3OC(CO)C(O)C3O)c[nH]c12 (centres undefined) ?
Vaccinia Venus: 0.25µM*; Vaccinia mCherry: 0.28µM*

Results for Cc1ccc(NC(=O)c2nccnc2C(=O)O)cc1C ?
Vaccinia Venus: 1%; Vaccinia mCherry: inactive

What do the screens show for `CC(C)N(C(=O)Cn1cc(SCC(N)=O)c2ccccc21)C(C)C`?
Vaccinia Venus: 0%; Vaccinia mCherry: -9%

Results for CCOC(=O)c1[nH]c2ccccc2c1NC(=O)C(C)(C)C ?
Vaccinia Venus: -1%; Vaccinia mCherry: inconclusive

How did COc1cccc(N2CC(C(=O)Nc3nnc(SCC(=O)N4CCOCC4)s3)CC2=O)c1 (centres undefined) do in these assays?
Vaccinia Venus: -12%; Vaccinia mCherry: -11%

Results for COc1ccc(S(=O)(=O)N2CCNC(=O)C2)cc1Br ?
Vaccinia Venus: -18%; Vaccinia mCherry: -18%

What do the screens show for `O=C1C=C(C#Cc2ccc(Oc3ccccc3)cc2)C[C@@H](c2ccc(F)cc2)C1`?
Vaccinia Venus: inconclusive; Vaccinia mCherry: -23%

What do the screens show for `CCCCCCC[n+]1ccc(-c2cc[n+](CCCCCCC)cc2)cc1`?
Vaccinia Venus: inconclusive; Vaccinia mCherry: inconclusive

Results for Cc1ccc(NC(=O)C2CCCN(c3ncnc4onc(-c5ccc(F)cc5)c34)C2)c(Cl)c1 (centres undefined) ?
Vaccinia Venus: -13%; Vaccinia mCherry: -11%

What do the screens show for `O=C(OCC(=O)c1ccc(Cl)s1)c1ccc(CO)cc1`?
Vaccinia Venus: -8%; Vaccinia mCherry: -10%

How did CCc1ccc2c(c1)c1nnc(NN)nc1n2C do in these assays?
Vaccinia Venus: -1%[7.34 µM]; Vaccinia mCherry: -12%[7.34 µM]

What do the screens show for `CCn1c(CNC(=O)c2cccc(C)c2)nnc1SCC(=O)NC1CCCC1`?
Vaccinia Venus: -17%; Vaccinia mCherry: -11%

What do the screens show for `COc1ccc(C)cc1NS(=O)(=O)c1ccc2c(c1)[C@H]1C=CC[C@H]1[C@@H](c1cccc(Cl)c1)N2`?
Vaccinia Venus: -19%; Vaccinia mCherry: -15%

Results for CN(CCO)C(=O)CCC(=O)Nc1ccc(S(N)(=O)=O)cc1 ?
Vaccinia Venus: -5%; Vaccinia mCherry: -8%

How did COc1ccccc1NC(=O)C(C)OC(=O)Cc1n[nH]c(=O)c2ccccc12 (centres undefined) do in these assays?
Vaccinia Venus: -14%; Vaccinia mCherry: -7%

Results for COc1ccc(OCc2nnc(SCC(=O)N3CCOCC3)o2)cc1 ?
Vaccinia Venus: -1%; Vaccinia mCherry: inactive

What do the screens show for `CC1Cc2ccccc2N1C(=O)CSc1nc2ccc(NC(=O)COc3ccccc3)cc2s1` (centres undefined)?
Vaccinia Venus: -21%; Vaccinia mCherry: -18%

Results for Cc1c(C(=O)N2CCOCC2)c(S(=O)(=O)Nc2cccc(Br)c2)c(C)n1C ?
Vaccinia Venus: -12%; Vaccinia mCherry: inactive

What do the screens show for `CC(C)C(=O)O/N=C1\CCS(=O)(=O)c2sccc21`?
Vaccinia Venus: -8%; Vaccinia mCherry: -3%

How did CCOc1ccc(S(=O)(=O)NCCC(=O)N(CC)CC(=O)Nc2c(F)cccc2F)cc1 do in these assays?
Vaccinia Venus: -9%; Vaccinia mCherry: inactive

How did COc1ccc(N2CC(NC(=O)c3ccc(S(=O)(=O)N4CCCCC4)cc3)CC2=O)cc1OC (centres undefined) do in these assays?
Vaccinia Venus: -5%; Vaccinia mCherry: -9%

Results for CCN(CC(=O)Nc1ccccc1C(F)(F)F)C(=O)CN1C(=O)NC2(CCCCC2)C1=O ?
Vaccinia Venus: -10%; Vaccinia mCherry: inactive

Results for Cc1ccc(NC(=O)c2ccc(Cl)c(S(=O)(=O)NCc3ccco3)c2)c(O)c1 ?
Vaccinia Venus: -23%; Vaccinia mCherry: inconclusive

How did CC(C)C[C@@H](CNCC(=O)[C@H](CC(C)C)NC(=O)c1[nH]cnc1C(=O)N[C@H](CN)CC(C)C)NC(=O)c1nc[nH]c1C(=O)N[C@@H](Cc1ccccc1)C(=O)O do in these assays?
Vaccinia Venus: 3%; Vaccinia mCherry: inactive

Results for O=C(Nc1cccnc1Cl)c1cc(-c2ccc(O)cc2)on1 ?
Vaccinia Venus: -1%; Vaccinia mCherry: inconclusive

How did NC(=NCCc1ccccc1)NS(=O)(=O)c1ccccc1 do in these assays?
Vaccinia Venus: -12%; Vaccinia mCherry: -12%

How did COC(=O)[C@]1(Cc2ccccc2)N[C@H](CN(C)C(=O)Nc2ccc(OC)cc2)[C@@H]2C(=O)N(C)C(=O)[C@@H]21 do in these assays?
Vaccinia Venus: -4%; Vaccinia mCherry: -23%

What do the screens show for `CCC(=O)c1ccc(OCC(O)CN2CCOCC2)cc1` (centres undefined)?
Vaccinia Venus: -11%; Vaccinia mCherry: inactive

What do the screens show for `COC(=O)c1ccccc1NC(=O)CSc1nnc(-c2cccnc2)o1`?
Vaccinia Venus: -16%; Vaccinia mCherry: -10%

Results for COC(=O)C[C@H]1C=C[C@@H](NS(=O)(=O)c2ccccc2)[C@@H](CO)O1 ?
Vaccinia Venus: 3%; Vaccinia mCherry: -8%

How did COC(=O)c1ccc(NS(=O)(=O)c2cc3c4c(c2)CCN4C(=O)CC3)cc1 do in these assays?
Vaccinia Venus: -10%; Vaccinia mCherry: -14%

Results for CN(C)CCCN(C(=O)c1ccc(C(=O)c2ccccc2)cc1)c1nc2cc3c(cc2s1)OCCO3 ?
Vaccinia Venus: inconclusive; Vaccinia mCherry: -5%

Results for CCN(CC)S(=O)(=O)c1ccc(Cl)c(NC(=O)COC(=O)c2c(C)noc2C)c1 ?
Vaccinia Venus: -26%; Vaccinia mCherry: -14%

What do the screens show for `CC(C)CC(=O)NC(=S)Nc1ccc(S(=O)(=O)Nc2nccs2)cc1`?
Vaccinia Venus: -13%; Vaccinia mCherry: -25%

What do the screens show for `O=c1cn[nH]c2ccc(Br)cc12`?
Vaccinia Venus: -20%; Vaccinia mCherry: 5%

What do the screens show for `O=C(COC(=O)C1CC1)Nc1ccc2c(c1)OCO2`?
Vaccinia Venus: 9%; Vaccinia mCherry: 4%

What do the screens show for `CCOC(=O)C1(Cc2cccc(Cl)c2)CCCN(C(=O)c2cccc(C)n2)C1` (centres undefined)?
Vaccinia Venus: -13%; Vaccinia mCherry: -6%

How did O=C(NNC(=O)c1ccccc1F)c1ccc(-c2ccccc2Cl)o1 do in these assays?
Vaccinia Venus: -17%; Vaccinia mCherry: inactive

Results for CC(=O)CCn1c(=O)n(CCC(C)=O)c(=O)n(CCC(C)=O)c1=O ?
Vaccinia Venus: -8%; Vaccinia mCherry: -14%

What do the screens show for `Cc1cccc(-n2c(N)cc(=O)nc2SCC(=O)Nc2ccc(F)cc2)c1C`?
Vaccinia Venus: -5%; Vaccinia mCherry: -14%

How did CCNC(=O)CCn1nc(-c2ccc(Cl)cc2)c2ccccc2c1=O do in these assays?
Vaccinia Venus: -12%; Vaccinia mCherry: inactive

What do the screens show for `C=CCN1CC[C@]23c4c5ccc(O)c4OC2C(=O)CC[C@@]3(O)C1C5` (some centres undefined)?
Vaccinia Venus: -14%; Vaccinia mCherry: inactive

How did C=C1C(C(=O)Nc2ccc(OCC)cc2)C1C(=O)Nc1ccc(OCC)cc1 (centres undefined) do in these assays?
Vaccinia Venus: -6%; Vaccinia mCherry: inactive

How did CC(=O)Nc1cccc(-c2ccnc3c2CC(C(=O)NCc2cccnc2)O3)c1 (centres undefined) do in these assays?
Vaccinia Venus: 1%; Vaccinia mCherry: 0%

Results for CC12COC3(C(=O)Nc4ccc([N+](=O)[O-])cc4)CC1CCC32C (centres undefined) ?
Vaccinia Venus: -23%; Vaccinia mCherry: -29%

How did COC(=O)c1c(N)n(-c2ccc(NC(C)=O)cc2)c2nc3ccccc3nc12 do in these assays?
Vaccinia Venus: -13%

How did O=C(O)CC1c2ccccc2CCN1S(=O)(=O)c1cccs1 (centres undefined) do in these assays?
Vaccinia Venus: -14%[7.34 µM]; Vaccinia mCherry: -5%[7.34 µM]

How did NC1=NC(=O)/C(=C/c2cccc(-c3ccc(S(N)(=O)=O)cc3)c2)S1 do in these assays?
Vaccinia Venus: -5%; Vaccinia mCherry: inactive

How did Cc1cccc(NC(=O)NNC(=O)c2cc(-c3ccccc3Cl)nc3ccccc23)c1 do in these assays?
Vaccinia Venus: -25%

Results for Cc1nnc(SCCn2c(Br)nc3c2c(=O)[nH]c(=O)n3C)s1 ?
Vaccinia Venus: -12%

Results for CCN(CC)C(=O)C1=C(C)N(Cc2ccc(C(C)(C)C)cc2)C(=O)C(CC(=O)NCCCCc2ccccc2)C1 (centres undefined) ?
Vaccinia Venus: -24%; Vaccinia mCherry: -18%

Results for O=C(CC1C(=O)NCCN1C/C=C/c1ccccc1)NCCc1ccncc1 (centres undefined) ?
Vaccinia Venus: -15%; Vaccinia mCherry: -14%

How did CCOc1ccc2nc(N=Nc3c(O)[nH]c(=O)[nH]c3=O)sc2c1 do in these assays?
Vaccinia Venus: -3%; Vaccinia mCherry: inconclusive

How did O=C(CNC(=S)NC(=O)c1ccco1)c1ccccc1 do in these assays?
Vaccinia Venus: -13%; Vaccinia mCherry: -14%

Results for COc1cccc(N2CCN(Cc3cc(=O)oc4cc(C)ccc34)CC2)c1 ?
Vaccinia Venus: -11%; Vaccinia mCherry: -4%

Results for CN(Cc1ccccc1)c1ccc(/C=C/c2nc3ccccc3s2)cc1 ?
Vaccinia Venus: -11%; Vaccinia mCherry: -13%

Results for COc1ccc(OC)c(C2C(C#N)=C(N)Oc3cc(C)[nH]c(=O)c32)c1 (centres undefined) ?
Vaccinia Venus: 11%; Vaccinia mCherry: 5%

What do the screens show for `O=C(c1ccc(S(=O)(=O)N2CCCCCC2)cc1)N(c1ccccn1)C1CCCCC1`?
Vaccinia Venus: -8%; Vaccinia mCherry: 0%

Results for COc1ccc(C2(C)NC(=O)N(CC(=O)Nc3ccc4c(c3)OCO4)C2=O)cc1OC (centres undefined) ?
Vaccinia Venus: -4%; Vaccinia mCherry: -11%[1.46 µM]

Three entries already listed, arranged by length of the SMILES, falling.
Results for CCN(CC)C(=O)C1=C(C)N(Cc2ccc(C(C)(C)C)cc2)C(=O)C(CC(=O)NCCCCc2ccccc2)C1 (centres undefined) ?
Vaccinia Venus: -24%; Vaccinia mCherry: -18%

Results for COc1ccc(C2(C)NC(=O)N(CC(=O)Nc3ccc4c(c3)OCO4)C2=O)cc1OC (centres undefined) ?
Vaccinia Venus: -4%; Vaccinia mCherry: -11%[1.46 µM]

Results for Cc1nnc(SCCn2c(Br)nc3c2c(=O)[nH]c(=O)n3C)s1 ?
Vaccinia Venus: -12%

Gathered by group, the entries above with a nitro group on carbon.
Results for CNc1ncnc(Sc2ccc(Cl)cc2)c1[N+](=O)[O-] ?
Vaccinia Venus: -13%; Vaccinia mCherry: inactive

Results for CC12COC3(C(=O)Nc4ccc([N+](=O)[O-])cc4)CC1CCC32C (centres undefined) ?
Vaccinia Venus: -23%; Vaccinia mCherry: -29%

High-throughput results: PubChem, National Center for Advancing Translational Sciences (NCATS)
